# Compound activity from PubChem.
# Rango release inh = prevents RanGTP from dissociating the Rango-importin beta complex; Biochemical FRET Rango-importin beta, RanGTP-induced dissociation; Potency, µM (titrated, usually from 46.1 µM), for the others: top-dose activity change, negative = inhibition; AID 540253; 340,000 compounds, 0.071% hits; O95149+P62826; active means falling FRET ratio curve, often poorly fitted, with flat reads before Ran was added; inconclusive means other falling curves, or compound fluorescence or quenching; inactive means flat or rising ratio curve;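 note: potency is the fitted concentration of half-maximal effect; % of control where 0% means no effect; nearly all actives have a fitted effect of over 45% in size; -100% = wells without RanGTP and RCC1; the record marks most hits as doubtful in a second field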
#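 Rango/importin beta premix (0.1/0.25 uM final), PBS + 1 mM DTT + 0.02% Tween-20 + 0.1% BSA; cpd 5 min RT; FRET pre-read; + RanGTP-RCC1 (0.6 uM Ran, 2 mM GTP, 0.2 uM RCC1); 45 min RT; FRET post-read, ex 430, em 486/530 nm.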
# GLA inh pH 4.5 = alpha-galactosidase A (human) inhibition, pH 4.5; P06280; purified enzyme, 4-MU-alpha-Gal fluorescence, pH 4.5; activity change, negative = inhibition, % at 105 µM; 230,000 tested, under 10 active; AID 1467; inconclusive = small, poorly fitted or top-dose-only inhibition, or a rising curve; inactive = flat fitted curve, though single readings scatter; no compound was filed as active;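 note: 0% = full activity with enzyme and -100% = basal without enzyme; dose as in the result columns while the protocol names 77 µM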
# Target sequence (P06280 whole entry, looked up): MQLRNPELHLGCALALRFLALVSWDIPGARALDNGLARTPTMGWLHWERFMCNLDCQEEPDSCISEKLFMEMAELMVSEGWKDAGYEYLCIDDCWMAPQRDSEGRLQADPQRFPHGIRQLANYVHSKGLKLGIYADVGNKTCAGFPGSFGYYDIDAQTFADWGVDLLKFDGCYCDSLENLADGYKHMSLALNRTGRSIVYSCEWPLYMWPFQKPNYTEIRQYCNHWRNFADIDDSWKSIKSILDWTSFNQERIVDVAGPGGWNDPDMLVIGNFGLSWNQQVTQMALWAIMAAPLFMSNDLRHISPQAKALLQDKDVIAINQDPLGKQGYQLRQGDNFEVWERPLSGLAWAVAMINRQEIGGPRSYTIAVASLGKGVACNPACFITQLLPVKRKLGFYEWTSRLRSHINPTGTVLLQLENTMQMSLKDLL
# miR-21 FLuc = raises the signal of a miR-21 reporter; HeLa miR-21 FLuc reporter, luciferase, 48 h; Potency, µM (titrated, usually from 38.3 µM), without a hit: at the highest dose reporter change, positive = more light; 340,000 tested, under 10 active; active = well fitted rising curve with a large enough effect; inconclusive = small, poorly fitted or top-dose-only effect; inactive = no such curve, though single readings can be large or run the other way;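 note: % of control where 0% means no effect; miR-21 action dims this reporter so a rising signal means less miR-21 action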
#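 HeLa cells endogenously expressing miR-21, stably carrying CMV-driven firefly luciferase with a downstream miR-21 binding site, 2000 cells/well. Titrations up to approximately 40 uM, 48 hours; luciferase luminescence read.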
# Rango complex inh = Rango-importin beta binding inhibition; Q14974; Rango CFP/YFP FRET sensor + importin beta, 45 min; Potency, µM (highest dose often 92.2 µM), without a hit: at the highest dose inhibition of complex formation; 340,000 compounds, 0.031% hits; AID 540263; active = rising FRET ratio curve, often small or poorly fitted; inconclusive = mostly compound fluorescence or quenching in the first reads; inactive = flat curves in all reads;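 note: potency is the fitted concentration of half-maximal effect; 0% = DMSO wells and 100% = buffer wells lacking importin beta; nearly all actives have a fitted effect of over 15% in size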
#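 FRET biosensor Rango (snurportin 1 IBB between N-terminal EYFP and C-terminal Cerulean), 50 nM in PBS/1 mM DTT/0.02% Tween-20/0.1% BSA, preincubated 5 min RT with compound; 0.125 microM importin beta added, 45 min RT, CFP/YFP FRET ratio read.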
# Numbers without * were called inactive; ? = inconclusive; . = no result given.
SMILES,Rango release inh,GLA inh pH 4.5,miR-21 FLuc,Rango complex inh
CN1C(=O)NC(NC(=O)c2cccs2)(C(F)(F)F)C1=O (stereo not drawn),0%,-1,-2%,6.7%
O=C1c2ccccc2C(=O)N1CCCOCc1c[nH]c(=O)[nH]c1=O,-10%,1,-1%,-0.7%
O=C1OCCC1Sc1nc2ccccc2n1Cc1ccccc1 (stereo not drawn),11%,-15,-8%,0.2%
Cn1c(=Nc2ccccc2)sc2ccccc21,16%,8,-35%,7.9%
O=C(NNC(=S)Nc1ccccc1)c1ccc(O)cc1,-4%,-7,-64%,-4.2%
O=C(Nc1ccc2c(c1)OCCO2)C1CCN(S(=O)(=O)Cc2ccccc2)CC1,22%,11,-14%,-4.0%
C=CCC1(Cl)C(=O)C(Cl)=C(N2CCOCC2)C1(OC)OC (stereo not drawn),40%,2,1%,-1.6%
Cn1c(CNC(=O)c2ccc(Cl)c(Cl)c2)nnc1SCC(=O)Nc1sc2c(c1C#N)CCCC2,2%,-3,7%,9.1%
OCCN1CCN(c2nc(-c3ccccc3O)nc3ccccc23)CC1,-24%,.,9%,2.6%
FCCCOc1ccc(-c2nccc(-c3ccc(F)cc3)n2)cc1,-2%,5,-20%,-2.0%
N#Cc1ccc(CN2C=NS(=O)(=O)c3ccccc32)cc1,25%,.,0%,-5.3%
CC1Cc2ccccc2N1Cc1nc2cc(C(F)(F)F)ccc2c(=O)[nH]1 (stereo not drawn),-15%,-1,5%,0.1%
CCC1CCCCN1S(=O)(=O)c1ccc(NC(=O)CSc2ncccc2C(=O)O)cc1 (stereo not drawn),-9%,8,-2%,2.5%
COc1ccc(OCCNC2CCCC2)cc1,-4%,1,-9%,-2.4%
CCCn1c(=O)c2c(C(=O)OCC)cc(-c3ccco3)nc2n(CCC)c1=O,-13%,?,0%,-0.1%
O=C(NCc1ccco1)C(=O)N1CCCC1,-4%,0,6%,-0.7%
CCOc1ccc(NS(=O)(=O)c2ccc(NS(=O)(=O)c3ccc(SC)cc3)cc2)cc1,-2%,-19,4%,-1.8%
CC1=CC(=O)C=C(C)C1=NOc1ccc([N+](=O)[O-])cc1,9%,-2,0%,1.9%
Cn1c(NC(=O)/C=C/c2ccco2)cc(=O)n(C)c1=O,6%,-1,-9%,-1.8%
O=S(Cc1cc(Oc2ccccc2)nc(-c2ccccc2)n1)c1ccccc1 (stereo not drawn),1%,-24,-6%,-2.8%
COc1ccc(-c2nc(CN3CCC(C(=O)NC4CCCc5ccccc54)CC3)c(C)o2)cc1OC (stereo not drawn),1%,.,.,1.2%
Cc1cccc2cc(/C=N/NC(=O)CN3CCCCC3)c(Cl)nc12,.,3,-2%,.
CCOC(=O)C1CCN(C(=O)c2cn(C)c(=O)c3cc(OC)c(OC)cc23)CC1,-3%,-5,-5%,1.8%
COc1ccccc1/C=N/NC(=O)C(=O)N1CCN(c2ccccc2OC)CC1,6%,-20,-9%,0.2%
CCOC(=O)C1=C(CS(=O)(=O)c2ccccc2)NC(=O)NC1c1ccc(O)c(OC)c1 (stereo not drawn),-8%,-5,-2%,4.2%

# Going on with the list:
SMILES,Rango release inh,GLA inh pH 4.5,miR-21 FLuc,Rango complex inh
Cc1nc2cc(NC(=O)c3cccc(S(C)(=O)=O)c3)ccc2o1,2%,.,-9%,-3.6%
CC12CCC(C(=O)N(CC(=O)O)C1=O)C2(C)C (stereo not drawn),6%,2,0%,-0.7%
Cc1ccc(Nc2c(O)nc[nH]c2=O)cc1,13%,.,.,-2.5%
Cc1cccc(C)c1NC(=S)N(CCN(C)C)C(C)c1cccnc1 (stereo not drawn),3%,1,-6%,7.4%
O=C1CCCN1CCC(=O)N1CCCC(Nc2ccc(F)c(F)c2)C1 (stereo not drawn),-12%,.,-12%,-1.9%
CN(CC(=O)Nc1cccnc1Cl)S(=O)(=O)c1ccc(Cl)cc1,8%,.,1%,-0.7%
O=C(NCCCCc1ccccc1)c1ccccc1F,-7%,.,-27%,-1.2%
O=C(NCc1cc(C(F)(F)F)ccc1F)C1CCC(=O)N(C2CCCCCC2)C1 (stereo not drawn),0%,.,10%,-3.5%
CCCC(=O)Nc1ccc(C(=O)COC(=O)c2c(C)noc2C)cc1,-14%,.,.,-0.1%
O=C(CSc1n[nH]c(=O)n1-c1ccccc1)Nc1ccccc1,-18%,1,-4%,-0.4%
CCCCn1c(N)c(N(CC(C)C)C(=O)c2cc(S(=O)(=O)N3CCOCC3)ccc2Cl)c(=O)[nH]c1=O,-3%,.,.,-3.4%
CCC(C)(C)NC(=O)c1cc([N+](=O)[O-])ccc1N1CCCCC1,-5%,-4,-5%,7.1%
Cc1ccc(NS(=O)(=O)c2cn(C)c(=O)n(C)c2=O)cc1C,3%,.,-3%,5.2%
CCCCn1nc(C(=O)NCC(=O)Nc2c(C)cccc2C)c2ccccc2c1=O,-15%,.,.,3.0%
CC(C)(CN1CCNCC1)NS(=O)(=O)c1ccc(Cl)cc1,-9%,.,.,1.2%
Cc1cc(SCC(=O)c2cccs2)nc2c(C)cccc12,-26%,-22,-6%,?
O=C(NC1CC1)C1=C[C@H](c2ccc3c(c2)OCO3)C[C@H](OCc2ccc(CO)cc2)O1,-3%,0,-19%,0.8%
COc1ccc(S(=O)(=O)Nc2cccc(SC)c2)cc1OC,0%,6,1%,-1.3%
CCN(CC)S(=O)(=O)c1ccc(N/N=C/c2cc(OC)c(OC)cc2OC)nc1,-23%,21,0%,-6.3%
COc1nc(OCC#N)nc(N(C)C)n1,17%,6,-7%,5.0%
CCN(CC)C(=O)C1CC(=O)N(c2ccc(F)c(Cl)c2)C1 (stereo not drawn),1%,1,-7%,-6.2%
CC(C)(C)c1ccc(S(=O)(=O)Nc2noc3ccccc23)cc1,12%,.,-15%,-0.8%
COc1ccc(-c2nc3ccccn3c2NC2CCCCC2)cc1SC1CCCCC1,-23%,.,.,?
O=C(c1cccs1)N1CCN=C1SCc1cccc(F)c1,17%,-11,-5%,3.5%
O=C(NCCCc1ccncc1)C1CCC(=O)N(Cc2ccc(Cl)cc2)C1 (stereo not drawn),11%,.,-1%,?

# Brought forward from above: 2 entries, then new ones.
SMILES,Rango release inh,GLA inh pH 4.5,miR-21 FLuc,Rango complex inh
O=C(c1cccs1)N1CCN=C1SCc1cccc(F)c1,17%,-11,-5%,3.5%
O=C(NCCCc1ccncc1)C1CCC(=O)N(Cc2ccc(Cl)cc2)C1 (stereo not drawn),11%,.,-1%,?
CC(C)(C)NC(=O)C1CCN(C(=O)c2ccc(-c3ccccc3)cc2)CC1,21%,-5,3%,4.3%
Cc1ccsc1CN(C)C(=O)CN1C(=O)NC2(CCCc3ccccc32)C1=O (stereo not drawn),0%,.,.,-1.9%
CC(Sc1nnc(C(F)(F)F)n1C)C(=O)NC(N)=O (stereo not drawn),-12%,9,-5%,-4.1%
O=C(NN1C(=O)c2ccccc2NC1c1ccccn1)c1ccccc1 (stereo not drawn),17%,-1,-15%,-2.2%
CCOc1ccccc1NC(=O)CN1C(=O)COc2ccc(Cl)cc21,19%,-2,-13%,1.0%
COc1cccc(C2CC(C(F)(F)F)n3ncc(C(=O)NC(C)(C)C)c3N2)c1 (stereo not drawn),5%,-18,-4%,5.8%
COCC(=O)Nc1ccccc1Br,0%,5,-12%,0.8%
CCc1ccc(NC(=O)C2CCCN2S(=O)(=O)c2ccc3c(c2)C(C)(C)C(=O)N3C)cc1 (stereo not drawn),-14%,.,11%,-2.7%
O=C(NCC(c1ccco1)N1CCCC1)c1cccc(S(=O)(=O)Nc2ccc(Br)cc2)c1 (stereo not drawn),-30%,.,0%,-4.4%
Cn1nnc(NC(=O)c2ccc3ccccc3c2)n1,-1%,-2,-63%,-1.1%
Cc1ccc(S(=O)(=O)N(C(=O)c2ccncc2)c2ccc(OC(=O)c3ccncc3)c3ccccc23)cc1,-17%,0,29%,-4.1%
Cc1ccc(OCC(=O)N/N=C2/SCC(=O)N2Cc2ccco2)cc1,-11%,-2,4%,1.7%
CCOC(=O)c1c(-n2cnnn2)sc2c1CCCC2,32%,-5,0%,2.5%
O=C(Nc1ccc2c(c1)OCO2)c1cnn2cccnc12,?,0,-38%,1.0%
Cc1ccc(C(=O)NN2C(=O)CSC2=S)cc1,-5%,-7,-13%,-0.7%
CC(NC(=O)C(=O)NN=C1CCCC1)c1ccccc1 (stereo not drawn),-1%,6,-4%,0.5%
Cc1ccc2cc(NC(=O)c3ccc(C(C)(C)C)cc3)ccc2n1,18%,.,-16%,-1.4%
Nc1cc2sc(-c3ccc(C(=O)O)cc3)nc2cc1Cl,?,11,-8%,?
O=C(/C=C/c1cccs1)NC(=S)Nc1ccc(C(=O)O)cc1,19%,-4,-4%,0.0%
CS(=O)(=O)Nc1ccc(C(=O)NCCc2ccccc2)cc1,12%,3,-50%,-1.1%
COc1ccccc1OCC(=O)NNC(=O)c1ccoc1C,24%,2,4%,-3.0%
COc1ccc(S(=O)(=O)NNc2nc(C)cc(C)n2)cc1Br,0%,.,.,3.5%
O=S(=O)(Nc1ccc2ccccc2n1)c1ccccc1Cl,37%,.,-8%,-7.6%
C/C(=N\NC(=O)Cc1ccccc1)c1ccc(Cl)s1,7%,.,0%,-0.1%
COc1ccccc1/C=C(/CC(=O)NCc1ccc(F)cc1)c1nc2ccccc2s1,1%,13,1%,3.7%

# The last two records of the section above are carried over, then new ones follow:
SMILES,Rango release inh,GLA inh pH 4.5,miR-21 FLuc,Rango complex inh
C/C(=N\NC(=O)Cc1ccccc1)c1ccc(Cl)s1,7%,.,0%,-0.1%
COc1ccccc1/C=C(/CC(=O)NCc1ccc(F)cc1)c1nc2ccccc2s1,1%,13,1%,3.7%
CCN(CC)c1ccc(CN2CCCCCC2)cc1,-12%,12,0%,-2.5%
O=C(NCCS(=O)(=O)c1ccc(Br)cc1)c1ccc(Cl)cc1Cl,7%,.,-3%,-0.1%
O=C(OCC(=O)c1c[nH]c2ccccc12)c1cc(Br)ccc1O,-1%,0,-20%,-1.1%
Cc1ccc(C(=O)/C=C\C(=O)c2ccc(C)cc2)cc1,-2%,3,-8%,-6.8%
CSc1ncc(C(=O)Nc2ccc(Br)cn2)c(C)n1,-12%,.,8%,?
CC1CCCC/C1=N\NS(=O)(=O)c1ccc(Br)cc1 (stereo not drawn),-19%,2,-1%,1.7%
COc1ccc(C(=O)N/N=C/c2ccc(OC(=O)c3cccs3)cc2)cc1,2%,4,-16%,3.2%
COc1cc(C#Cc2c(-c3cncn3C)n(C)c3ccc(-c4cnc(OC)nc4)cc23)cc(OC)c1,3%,.,.,5.9%
CC(CCc1ccccc1)NC(=O)c1cc2sccc2n1C (stereo not drawn),-6%,-4,-22%,-0.9%
OCC[C@@H]1C[C@@H](O)[C@H](O)[C@@]2(OCCc3ccccc32)O1,44%,.,2%,-1.3%
CCn1nc(-c2ccccc2)c2nc3ccccc3nc21,?,-1,-5%,?
O=S(=O)(c1ccc(NC(=S)N/N=C/c2ccc(Oc3ccccc3)cc2)cc1)N1CCOCC1,17%,2,-5%,0.6%
CC(C)c1nc2c(s1)CCc1onc(-c3cccc([N+](=O)[O-])c3)c1-2,17%,.,.,-3.0%
O=C(Nc1cccc(C(F)(F)F)c1)Nn1cnnc1,14%,.,0%,-0.9%
CCN(CC(=O)NCc1ccc(F)cc1)C(=O)C1CCN(C(=O)Nc2ccccc2)CC1,7%,2,-15%,-0.7%
O=C(Nc1ccc(F)cc1)Nc1nnc(-c2ccncc2)s1,2%,-10,-7%,-3.6%
CCOC(=O)N1CCC(N2Cc3cccc(C(=O)NCc4ccccn4)c3C2=O)CC1,5%,3,-11%,1.9%
COc1ccc(Nc2nc(N)c([N+](=O)[O-])c(N3CCN(C)CC3)n2)cc1,0%,.,-15%,-0.5%

# Record cards, as listed above. Order of values: Rango release inh, GLA inh pH 4.5, miR-21 FLuc, Rango complex inh
# `CCN(CC)c1ccc(CN2CCCCCC2)cc1` across the screens: -12%, 12, 0%, -2.5%
# `COc1ccc(-c2nc3ccccn3c2NC2CCCCC2)cc1SC1CCCCC1` across the screens: -23%, ., ., ?

# Some of the compounds tested; rates above refer to the full screens.
